# Ecoli rRNA inh – inhibits bacterial ribosomal RNA function over humanized ribosomes | E. coli WT GFP vs humanized-ribosome RFP mutants, fluorescence, 24 h; active compounds read low; DMSO median 0, no signal -100 | GFP signal change (wild-type ribosome), % (no concentration beside the values) | 350,000 tested, 1.6% active | AID 720706;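 active = significant combined selectivity score with lowered wild-type GFP, culture density cut under 30%, mutant RFP and density less affected; inactive = any of these conditions unmet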; note: one replicate is shown; some compounds called inactive have numbers as strong as hits
# Ecoli rRNA inh OD600 – recorded beside Ecoli rRNA inh, whose call it bears; OD600 change, %; measured here: OD600 growth;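 optical density of the mix in the first replicate; 0 = DMSO median and -100 = no signal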
# Ecoli rRNA inh RFP – further read-out of Ecoli rRNA inh, marked with its call; RFP signal change, %; measured here: RFP humanized mutant strains;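 first replicate; 0 = DMSO median and -100 = no signal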
# Active calls of the source: *.
no. | Ecoli rRNA inh RFP | Ecoli rRNA inh | Ecoli rRNA inh OD600 | SMILES
1 | -0.7 | -3 | -7 | CC(=O)N1[C@H](CO)[C@H](c2ccc(-c3ccc(F)cc3)cc2)[C@@H]1CNC(=O)C1CC1
2 | -0.2 | 0 | 8 | COc1ccc2c3c(n(C)c2c1)[C@@H](CO)N(C(=O)C1CCOCC1)CC31CCN(C(=O)c2ccncc2)CC1
3 | 1.9 | -2 | 7 | O=C(Nc1cccc(F)c1)N1CCCCN2[C@@H](CO)[C@@H](c3ccc(-c4ccncc4)cc3)[C@@H]2C1
4 | 6.0 | 5 | 10 | C[C@H](CO)N1C[C@H](C)[C@@H](CN(C)Cc2ccc(Oc3ccccc3)cc2)Oc2ccc(NC(=O)C3CCCCC3)cc2C1=O
5 | -0.2 | 1 | 1 | CCCC(=O)Nc1ccc2c(c1)C(=O)N(C)C[C@H](OC)[C@H](C)CN(Cc1ccncc1)[C@H](C)CO2
6 | -1.9 | 2 | -11 | CNC[C@H]1Oc2ccc(NS(=O)(=O)c3ccc(F)cc3)cc2C(=O)N([C@H](C)CO)C[C@H]1C
7 | -1.9 | 6 | 8 | C[C@H](CO)N1C[C@H](C)[C@H](CN(C)C(=O)Nc2ccc(F)cc2)Oc2ccc(NC(=O)Cn3cnnn3)cc2CC1=O
8 | 1.5 | 0 | 0 | CC(C)NC(=O)N1CC2(C1)[C@H](c1ccccc1)[C@H](CO)N2C(=O)C1CCCCC1
9 | 3.8 | -6 | 15 | CN(C)C(=O)c1ccc(-c2ccc3c(c2)[C@@H]2[C@@H](CCN2C(=O)c2ccc4c(c2)OCO4)[C@H](CO)N3)cc1
10 | -1.7 | 5 | 6 | O=C1CCCCn2cc(nn2)COC[C@@H](Cc2ccccc2)N1
11 | -1.8 | -4 | 0 | CO[C@H]1CN(C)C(=O)c2cc(NC(=O)c3ccc(F)cc3)ccc2OC[C@H](C)N(C(=O)CC2CC2)C[C@H]1C
12 | 0.8 | -1 | 5 | COc1ccc(NC(=O)N(C)C[C@@H]2Oc3c(NS(=O)(=O)c4ccccc4)cccc3C(=O)N([C@@H](C)CO)C[C@H]2C)cc1
13 | -0.4 | 0 | 4 | O=C(C1CCC1)N1C[C@@H]2[C@H](c3ccccc31)[C@@H](CO)N2C(=O)Cc1ccccn1
14 | -1.3 | 0 | 2 | C[C@H](CO)N1C[C@H](C)[C@@H](CN(C)C(=O)Nc2ccc3c(c2)OCO3)Oc2ccc(NS(=O)(=O)c3ccccc3)cc2CC1=O
15 | 1.7 | -1 | -9 | CCCC#Cc1ccc2c(c1)O[C@@H](CN(C)S(=O)(=O)c1cccc(OC)c1)[C@H](C)CN([C@H](C)CO)S2(=O)=O

# Shown with values under each structure: entries from further up.
# Every second line gives: Ecoli rRNA inh RFP	Ecoli rRNA inh	Ecoli rRNA inh OD600
9: CN(C)C(=O)c1ccc(-c2ccc3c(c2)[C@@H]2[C@@H](CCN2C(=O)c2ccc4c(c2)OCO4)[C@H](CO)N3)cc1
→ 3.8	-6	15
10: O=C1CCCCn2cc(nn2)COC[C@@H](Cc2ccccc2)N1
→ -1.7	5	6
11: CO[C@H]1CN(C)C(=O)c2cc(NC(=O)c3ccc(F)cc3)ccc2OC[C@H](C)N(C(=O)CC2CC2)C[C@H]1C
→ -1.8	-4	0
12: COc1ccc(NC(=O)N(C)C[C@@H]2Oc3c(NS(=O)(=O)c4ccccc4)cccc3C(=O)N([C@@H](C)CO)C[C@H]2C)cc1
→ 0.8	-1	5

# From entry 4 as far as 8, as listed above:
no. | Ecoli rRNA inh RFP | Ecoli rRNA inh | Ecoli rRNA inh OD600 | SMILES
4 | 6.0 | 5 | 10 | C[C@H](CO)N1C[C@H](C)[C@@H](CN(C)Cc2ccc(Oc3ccccc3)cc2)Oc2ccc(NC(=O)C3CCCCC3)cc2C1=O
5 | -0.2 | 1 | 1 | CCCC(=O)Nc1ccc2c(c1)C(=O)N(C)C[C@H](OC)[C@H](C)CN(Cc1ccncc1)[C@H](C)CO2
6 | -1.9 | 2 | -11 | CNC[C@H]1Oc2ccc(NS(=O)(=O)c3ccc(F)cc3)cc2C(=O)N([C@H](C)CO)C[C@H]1C
7 | -1.9 | 6 | 8 | C[C@H](CO)N1C[C@H](C)[C@H](CN(C)C(=O)Nc2ccc(F)cc2)Oc2ccc(NC(=O)Cn3cnnn3)cc2CC1=O
8 | 1.5 | 0 | 0 | CC(C)NC(=O)N1CC2(C1)[C@H](c1ccccc1)[C@H](CO)N2C(=O)C1CCCCC1

# Next results.
no. | Ecoli rRNA inh RFP | Ecoli rRNA inh | Ecoli rRNA inh OD600 | SMILES
16 | -0.6 | 1 | 3 | C[C@H]1CN(C)C(=O)c2cccnc2O[C@@H]1CN(C)C
17 | -1.4 | 1 | 1 | C[C@@H]1CCCCO[C@@H](CN(C)Cc2ccc(C(=O)Nc3ccccc3N)cc2)[C@H](C)CN([C@H](C)CO)C(=O)c2cc(N(C)C)ccc2O1
18 | -3.5 | 1 | -1 | COc1ccc(NC(=O)N(C)C[C@@H]2Oc3cc(-c4cccc(C(=O)N(C)C)c4)ccc3S(=O)(=O)N([C@H](C)CO)C[C@H]2C)cc1
19 | 0.8 | 2 | 7 | C[C@@H]1CN([C@@H](C)CO)C(=O)c2cccc(NS(=O)(=O)c3ccc(F)cc3)c2O[C@@H]1CN(C)Cc1ccc(Oc2ccccc2)cc1
20 | -1.4 | 0 | -5 | CO[C@H]1CN(C)C(=O)c2ccc(NC(=O)c3ccccc3F)cc2OC[C@@H](C)N(C)C[C@@H]1C
21 | -0.6 | 0 | -6 | C[C@H](CO)N1C[C@H](C)[C@H](CN(C)C(=O)Nc2ccc3c(c2)OCO3)Oc2ccc(NC(=O)Nc3ccccc3)cc2C1=O
22 | 1.0 | -5 | -1 | COc1ccc([C@@H]2C/C=C\C[C@@H](c3ccc4c(c3)OCO4)NC(=O)CCC(=O)N2)c(OC)c1
23 | 0.4 | 4 | 9 | C[C@@H]1CN([C@H](C)CO)C(=O)c2cc(C#Cc3ccncc3)cnc2O[C@H]1CN(C)Cc1ccncc1
24 | 3.8 | 4 | -18 | CCCC#Cc1ccc([C@H]2[C@H]3CN(C(=O)c4cccc(F)c4)CC(=O)N3[C@H]2CO)cc1
25 | 3.9 | 2 | 0 | CCS(=O)(=O)Nc1ccc2c(c1)C(=O)N(C)[C@@H]1CC[C@@H](CC(=O)NC)O[C@H]1CO2
26 | -2.7 | 3 | 6 | C[C@H]1CCCCO[C@H](CN(C)C)[C@@H](C)CN([C@@H](C)CO)C(=O)c2cc(NC(=O)C3CCCCC3)ccc2O1
27 | -1.3 | 1 | -1 | CCC(=O)N(C)C[C@@H]1Oc2ncc(C#CC(C)C)cc2C(=O)N([C@@H](C)CO)C[C@H]1C
28 | -2.3 | -1 | -15 | C[C@@H]1C(=O)N[C@@H](c2cccc(Cl)c2)CC=CC[C@H](C)Oc2ccccc2C(=O)N1C (mixture of isomers)
29 | 3.5 | 0 | -1 | C/C=C/c1ccc2c(c1)O[C@H](CN(C)C(=O)C1CCC1)[C@H](C)CN([C@H](C)CO)S2(=O)=O
30 | -2.7 | -1 | -9 | CCCC(=O)N1CCC2(CC1)CN(C(=O)CN1CCOCC1)[C@@H](CO)c1c2c2ccc(OC)cc2n1C

no. | Ecoli rRNA inh RFP | Ecoli rRNA inh | Ecoli rRNA inh OD600 | SMILES
31 | 8.1 | 1 | -14 | C[C@@H]1CN([C@H](C)CO)C(=O)Cc2cc(NC(=O)Nc3ccc(C(F)(F)F)cc3)ccc2O[C@@H]1CN(C)C(=O)NC1CCCCC1
32 | -1.7 | -8 | -5 | C[C@@H]1CCCCO[C@@H](CN(C)S(=O)(=O)c2ccc(Cl)cc2)[C@H](C)CN([C@@H](C)CO)C(=O)c2cc(N(C)C)ccc2O1
33 | -0.6 | 6 | 5 | CCC(=O)N1C[C@@H](C)[C@@H](OC)CN(C)C(=O)c2cc(NC(=O)c3cnccn3)ccc2OC[C@H]1C
34 | -3.9 | -3 | -7 | COc1ccc2c3c(n(C)c2c1)[C@H](CO)N(C)CC31CCN(S(=O)(=O)c2cn(C)cn2)CC1
35 | 0.0 | 0 | -2 | C[C@H](CO)N1C[C@H](C)[C@@H](CN(C)Cc2ccc(C(F)(F)F)cc2)OCc2cn(nn2)CCCC1=O
36 | -1.9 | 2 | 7 | CC(C)OC(=O)N(C)C[C@H]1OCc2ccccc2-c2ccccc2C(=O)N([C@@H](C)CO)C[C@H]1C
37 | -0.8 | 0 | 3 | CCCNC(=O)[C@@H]1[C@@H](CO)[C@@H]2Cn3c(ccc(-c4ccccc4F)c3=O)[C@H]1N2CCC
38 | -0.4 | -3 | -2 | CO[C@H]1CN(C)C(=O)c2ccc(NC(=O)c3ccccc3)cc2OC[C@@H](C)N(C(=O)C2CC2)C[C@@H]1C
39 | -2.5 | 4 | 5 | CC(C)NC(=O)N1[C@H](CO)[C@H](c2ccccc2)[C@@H]1CNC(=O)CN(C)C
40 | 1.2 | -1 | -5 | C[C@H](CO)N1C[C@H](C)[C@H](CN(C)S(=O)(=O)c2ccc(F)cc2)Oc2ccc(NS(=O)(=O)c3ccccc3)cc2C1=O
41 | 5.4 | 0 | 3 | CC(C)CC#Cc1ccc2c(c1)O[C@@H](CN(C)Cc1ccccc1)[C@@H](C)CN([C@H](C)CO)S2(=O)=O
42 | -0.9 | 10 | 16 | CCCNC(=O)N1CC2(CCN(C)CC2)c2c(n(C)c3cc(OC)ccc23)[C@@H]1CO
43 | 3.6 | -3 | 8 | C[C@@H]1CN([C@@H](C)CO)C(=O)c2cc(NS(=O)(=O)c3cccs3)ccc2O[C@H]1CN(C)C(=O)NC1CCCCC1
44 | 1.3 | 4 | 3 | CCCN(C)C[C@@H]1OCCCC[C@@H](C)Oc2ccc(NC(=O)NC3CCCCC3)cc2C(=O)N([C@H](C)CO)C[C@@H]1C
45 | -2.9 | 2 | 8 | O=C1NCCOCn2nncc2CC[C@H]1Cc1ccc(Cl)cc1

# Results in sequence from the list:
# Ecoli rRNA inh RFP for entries 39–43, in order: -2.5, 1.2, 5.4, -0.9, 3.6

# Next records.
no. | Ecoli rRNA inh RFP | Ecoli rRNA inh | Ecoli rRNA inh OD600 | SMILES
46 | -1.1 | 4 | -1 | C[C@H](CO)N1C[C@H](C)[C@@H](CN(C)C(=O)c2ccncc2)Oc2ncc(C#CC3CC3)cc2C1=O
47 | -1.7 | 0 | 12 | CC(C)[C@@H]1CC=CC[C@H](C)Oc2ccccc2C(=O)N(C)[C@@H](C)C(=O)N1 (mixture of isomers)
48 | -1.4 | 5 | 15 | COCC#Cc1ccc([C@@H]2[C@H](CO)N3CCCCN(C(=O)COC)C[C@@H]23)cc1
49 | 0.7 | 5 | 6 | C[C@@H]1CCCCO[C@@H](CN(C)C(=O)Nc2ccccc2)[C@@H](C)CN([C@@H](C)CO)C(=O)c2cc(NC(=O)Nc3ccccc3)ccc2O1
50 | 0.1 | -1 | 3 | C[C@H](CO)N1C[C@H](C)[C@@H](CN(C)S(=O)(=O)c2cn(C)cn2)Oc2ccc(NC(=O)Nc3ccc(F)cc3)cc2CC1=O
51 | -1.2 | -1 | -2 | CC(C)COC(=O)N(C)C[C@@H]1OCc2cn(nn2)CCCC(=O)N([C@H](C)CO)C[C@@H]1C
52 | 1.3 | 2 | 3 | C[C@H]1CN([C@@H](C)CO)C(=O)CCCn2cc(nn2)CO[C@H]1CN(C)C(=O)Cc1ccccc1
53 | 31 | -15 | -35 | CN1c2ccc(-c3cccc(F)c3)cc2[C@@H]2[C@@H](CCN2C(=O)C2CCCC2)[C@@H]1CO
54 | -0.3 | -2 | -3 | N#C[C@@H]1[C@H](c2ccc(-c3cccc(F)c3)cc2)[C@@H](CO)N1c1nc(-c2ccccc2)cs1
55 | 2.4 | 9 | 22 | CNC[C@H]1Oc2ncc(C3=CCCCC3)cc2C(=O)N([C@@H](C)CO)C[C@H]1C
56 | -3.2 | 2 | 7 | CCCNC(=O)N1C[C@H]2[C@@H](c3ccccc31)[C@H](CO)N2C(=O)C1CCOCC1
57 | -5.4 | 1 | -3 | CCS(=O)(=O)N1CC(=O)N2[C@H](CO)[C@@H](c3ccc(-c4ccccc4C)cc3)[C@H]2C1
58 | -0.7 | 3 | 4 | CO[C@H]1CN(C)C(=O)c2cc(NS(C)(=O)=O)ccc2OC[C@@H](C)N(C(=O)NC(C)C)C[C@@H]1C
59 | 0.0 | -1 | -2 | C[C@@H]1CN([C@@H](C)CO)C(=O)CCCn2cc(nn2)CO[C@H]1CN(C)Cc1ccc2c(c1)OCO2
60 | -0.5 | -5 | -3 | COc1ccc2c3c([nH]c2c1)[C@H](CO)N(S(C)(=O)=O)CC31CCN(C(=O)Nc2ccccc2)CC1

no. | Ecoli rRNA inh RFP | Ecoli rRNA inh | Ecoli rRNA inh OD600 | SMILES
61 | 1.9 | 2 | 2 | CO[C@@H]1CN(C)C(=O)c2cc(NS(C)(=O)=O)ccc2OC[C@H](C)N(C(=O)C2CCC2)C[C@H]1C
62 | -0.9 | -3 | -2 | CCCC(=O)Nc1ccc2c(c1)C(=O)N(C)[C@H]1CC[C@H](CC(=O)NCc3cccc(F)c3)O[C@@H]1CO2
63 | 4.3 | 2 | -12 | CN1c2ccc(-c3cccc(C#N)c3)cc2[C@H]2[C@H](CCN2C(=O)CC2CC2)[C@H]1CO
64 | 1.3 | 2 | 5 | C[C@H]1CN([C@@H](C)CO)S(=O)(=O)c2ccc(-c3ccc(F)cc3)cc2O[C@H]1CN(C)Cc1cccc(F)c1
65 | -1.2 | 2 | 2 | C[C@@H]1CN([C@H](C)CO)S(=O)(=O)c2ccc(C#CCN(C)C)cc2O[C@@H]1CN(C)C(=O)C1CC1

# Copied from the list.
# Value for compound 63 under Ecoli rRNA inh: 2
# Value for compound 61 under Ecoli rRNA inh: 2

# Some of the compounds tested, so the mix of outcomes need not match the whole.
